Screening results deposited in PubChem BioAssay by Broad Institute.
UUG fidelity: alters start codon recognition fidelity in yeast | S. cerevisiae UUG-firefly luciferase reporter, luminescence/redox ratio | activity score, % at 18.7 µM | AID 602363 | 0.13% of 350,000 active;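 active = replicate mean at a twofold rise or more, about +100% in these data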;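 note: firefly luciferase made from a UUG start codon reports start codon fidelity; reporter light over untreated wells divided by growth signal over untreated wells; some hits fall short of that in this replicate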
HIV Env fusion: inhibitors of HIV Env-mediated cell fusion; HeLa-JRFL Env/CEM21 cell fusion, luciferase; 1.1% of 360,000 active; inhibition, % at 12.3 µM;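 active = mean replicate inhibition score of at least 50 and every replicate individually at or above 50; inconclusive = only one of the two criteria met; inactive = mean below 50 and not all replicates reaching 50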;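 note: 0% = plate neutral controls and 100% = maraviroc near 300 nM; one replicate is shown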
The depositor's hits bear a star; u = inconclusive; [ ] = dose if it differs, or a comment. The list is partial, so the mix of outcomes need not match the whole.

Values run as follows: UUG fidelity | HIV Env fusion
C[C@@H]1CCCCO[C@H](CN(C)S(C)(=O)=O)[C@@H](C)CN([C@H](C)CO)C(=O)c2cc(NC(=O)Cc3ccccc3)ccc2O1
→ 3.8 | 5.8[16.7 µM]
C[C@@H]1CN([C@H](C)CO)S(=O)(=O)c2ccc(C3=CCCCC3)cc2O[C@@H]1CN(C)S(C)(=O)=O
→ 21.3 | 5.8[16.7 µM]
C[C@H]1CN([C@@H](C)CO)C(=O)c2cccc(NC(=O)Nc3ccc(C(F)(F)F)cc3)c2O[C@@H]1CN(C)C(=O)Nc1ccc2c(c1)OCO2
→ 21.8 | -14.1[16.7 µM]
C[C@@H]1CCCCO[C@@H](CN(C)C(=O)Nc2ccc3c(c2)OCO3)[C@@H](C)CN([C@H](C)CO)C(=O)c2cc(NS(C)(=O)=O)ccc2O1
→ -0.2 | 6.1[16.7 µM]
C[C@@H]1CN([C@H](C)CO)C(=O)c2cc(NC(=O)CCCN(C)C)ccc2O[C@@H](C)CCCCO[C@H]1CN(C)Cc1ccc(C(F)(F)F)cc1
→ 9.5 | -13.8[16.7 µM]
CCCNC(=O)N(C)C[C@@H]1Oc2ncc(C#CC3CC3)cc2C(=O)N([C@H](C)CO)C[C@@H]1C
→ -7.1 | -17.8[16.7 µM]
O=C(C[C@@H]1C=C[C@@H](NS(=O)(=O)c2ccc(F)cc2)[C@H](CO)O1)N1CCC(Cc2ccccc2)CC1
→ 3.5 | 0.8[16.7 µM]
Cc1ccc(S(=O)(=O)N(C)C[C@H]2Oc3c(NS(=O)(=O)c4ccccc4)cccc3C(=O)N([C@H](C)CO)C[C@H]2C)cc1
→ 2.0 | 4.1[16.7 µM]
COc1cccc(NC(=O)N(C)C[C@H]2Oc3cc(C#Cc4ccc(F)cc4)ccc3S(=O)(=O)N([C@@H](C)CO)C[C@H]2C)c1
→ -12.2 | -45.0[16.7 µM]
COc1cccc(S(=O)(=O)N[C@@H]2CC[C@@H](CCn3cc(-c4ccccc4)nn3)O[C@H]2CO)c1
→ 14.7 | 22.4[16.7 µM]
CNC[C@@H]1OCCCC[C@@H](C)Oc2ccc(NC(=O)c3ccncc3)cc2C(=O)N([C@H](C)CO)C[C@H]1C
→ 0.2 | -13.5[16.7 µM]
C[C@H](CO)N1C[C@H](C)[C@@H](CN(C)C(=O)Nc2ccccc2)OCCCC[C@H](C)Oc2ccc(NS(=O)(=O)c3ccccc3)cc2C1=O
→ 10.8 | -103.8[16.7 µM]
C[C@H](CO)N1C[C@H](C)[C@H](CN(C)S(=O)(=O)c2cccs2)Oc2ncc(-c3ccccc3)cc2C1=O
→ 26.1 | 0.5[16.7 µM]
C[C@@H]1CN([C@@H](C)CO)C(=O)c2cc(NC(=O)C3CCCCC3)ccc2O[C@@H](C)CCCCO[C@H]1CN(C)C(=O)Nc1cccc2ccccc12
→ -9.3 | -83.1[16.7 µM]
O=C(Nc1ccccc1)Nc1ccc2c(c1)[C@H]1C[C@@H](CC(=O)N3CCOCC3)O[C@H](CO)[C@H]1O2
→ -3.3 | 3.9[16.7 µM]
CC(C)NC(=O)N1[C@H](CO)[C@@H](c2ccc(C#CC3CC3)cc2)[C@@H]1C#N
→ -2.8 | -7.1[16.7 µM]
C[C@@H](NC(=O)C[C@@H]1C=C[C@@H](NC(=O)C2CC2)[C@@H](CO)O1)c1ccccc1
→ 2.7 | 19.6[16.7 µM]
COc1ccccc1-c1cn(CC[C@H]2CC[C@@H](NC(=O)C3CCCCC3)[C@H](CO)O2)nn1
→ -6.2 | 7.4[16.7 µM]
N#C[C@@H]1[C@@H](c2ccc(-c3cncnc3)cc2)[C@H](CO)N1C(=O)C1CCC1
→ -3.9 | 6.5[16.7 µM]
C[C@@H]1CN([C@H](C)CO)C(=O)Cc2cc(NC(=O)Nc3ccccc3)ccc2O[C@@H]1CN(C)Cc1ccc(Oc2ccccc2)cc1
→ 13.7 | -6.7[16.7 µM]
C[C@H]1CN([C@@H](C)CO)C(=O)Cc2cc(NC(=O)Nc3ccc(C(F)(F)F)cc3)ccc2O[C@@H]1CN(C)Cc1ccc(C(=O)O)cc1
→ -12.6 | 25.7[16.7 µM]
CCC(=O)N(C)C[C@@H]1Oc2cc(C#C[C@@H](C)O)ccc2S(=O)(=O)N([C@H](C)CO)C[C@@H]1C
→ 2.4 | 8.9[16.7 µM]
COc1cccc(-c2cnc3c(c2)C(=O)N([C@@H](C)CO)C[C@@H](C)[C@@H](CN(C)C(=O)CC2CC2)O3)c1
→ -7.0 | 2.0[16.7 µM]
CC(C)C#Cc1cnc2c(c1)C(=O)N([C@H](C)CO)C[C@@H](C)[C@@H](CN(C)C(=O)Cc1ccccn1)O2
→ -10.8 | -8.9[16.7 µM]
N#C[C@@H]1[C@H](c2ccc(C#CCC3CCCC3)cc2)[C@@H](CO)N1C(=O)c1ccccn1
→ -11.8 | -18.7[16.7 µM]
Cc1noc(C)c1S(=O)(=O)Nc1ccc2c(c1)C(=O)N([C@H](C)CO)C[C@H](C)[C@@H](CN(C)CC1CCCCC1)O2
→ -9.5 | -12.7[16.7 µM]
O=C(N[C@@H]1CC[C@H](CCNC(=O)C2CCOCC2)O[C@@H]1CO)c1ccncc1
→ -9.3 | 5.0[16.7 µM]
C[C@@H]1CCCCO[C@@H](CN(C)Cc2ccc(C(=O)Nc3ccccc3N)cc2)[C@@H](C)CN([C@H](C)CO)C(=O)c2cc(NC(=O)Nc3ccc4c(c3)OCO4)ccc2O1
→ -10.7 | 3.2[16.7 µM]
CO[C@@H]1CN(C)C(=O)c2ccc(NC(=O)c3ccccc3)cc2OC[C@H](C)N(C(=O)CN(C)C)C[C@@H]1C
→ 7.4 | -6.9[16.7 µM]
COC(=O)c1cn(C[C@H](Cc2ccccc2)NC(=O)Nc2ccccc2)nn1
→ 7.3 | -121.4[16.7 µM]

Part of the list above in a different format:
molecule: CNC[C@@H]1OCCCC[C@@H](C)Oc2ccc(NC(=O)c3ccncc3)cc2C(=O)N([C@H](C)CO)C[C@H]1C
  UUG fidelity = 0.2; HIV Env fusion = -13.5[16.7 µM]
molecule: C[C@H](CO)N1C[C@H](C)[C@@H](CN(C)C(=O)Nc2ccccc2)OCCCC[C@H](C)Oc2ccc(NS(=O)(=O)c3ccccc3)cc2C1=O
  UUG fidelity = 10.8; HIV Env fusion = -103.8[16.7 µM]

Next results
Values run as follows: UUG fidelity | HIV Env fusion
COc1ccc(CN(C)C[C@@H]2OCCCC[C@@H](C)Oc3ccc(NC(=O)CCCN(C)C)cc3C(=O)N([C@H](C)CO)C[C@H]2C)cc1
→ 2.0 | 7.8[16.7 µM]
CCCC(=O)Nc1ccc2c(c1)OC[C@@H](C)N(C(=O)CC1CC1)C[C@@H](C)[C@@H](OC)CN(C)C2=O
→ 11.1 | -18.3[16.7 µM]
CCCNC(=O)N(C)C[C@@H]1Oc2cc(-c3cccnc3)ccc2S(=O)(=O)N([C@@H](C)CO)C[C@@H]1C
→ 31.0 | 0.8[16.7 µM]
COc1cccc(S(=O)(=O)N(C)C[C@H]2Oc3ncc(C#CC(C)C)cc3C(=O)N([C@@H](C)CO)C[C@H]2C)c1
→ -2.1 | 2.4[16.7 µM]
C[C@H](CO)N1C[C@H](C)[C@H](CN(C)C(=O)C2CC2)Oc2cc(C#Cc3ccncc3)ccc2S1(=O)=O
→ -9.0 | 12.5[16.7 µM]
C[C@@H]1CN([C@H](C)CO)C(=O)Cc2cc(NC(=O)Cc3ccccc3)ccc2O[C@@H]1CN(C)C(=O)Nc1ccc(C(F)(F)F)cc1
→ -3.8 | -12.8[16.7 µM]
Cc1cc(C(=O)Nc2cccc3c2O[C@@H](CN(C)C(=O)Nc2ccc(C(F)(F)F)cc2)[C@@H](C)CN([C@@H](C)CO)C3=O)n(C)n1
→ 8.2 | 0.0[16.7 µM]
CCCC#Cc1cnc2c(c1)C(=O)N([C@H](C)CO)C[C@@H](C)[C@H](CN(C)Cc1ccccc1)O2
→ 11.3 | 25.3[16.7 µM]
C/C=C/c1ccc2c(c1)O[C@@H](CN(C)CC1CCOCC1)[C@@H](C)CN([C@@H](C)CO)S2(=O)=O
→ -4.8 | 9.0[16.7 µM]
C[C@H](CO)N1C[C@H](C)[C@H](CN(C)C(=O)C2CCOCC2)Oc2ncc(C3=CCCCC3)cc2C1=O
→ -10.3 | u
CNC[C@H]1Oc2ncc(Br)cc2C(=O)N([C@H](C)CO)C[C@H]1C
→ 3.2 | 5.8[16.7 µM]
Cc1noc(C)c1S(=O)(=O)Nc1ccc2c(c1)C(=O)N([C@H](C)CO)C[C@@H](C)[C@H](CN(C)C(=O)NC(C)C)OCCCC[C@@H](C)O2
→ -15.3 | -13.7[16.7 µM]
C[C@@H]1CN([C@@H](C)CO)C(=O)c2cc(C#CCN(C)C)cnc2O[C@@H]1CN(C)C(=O)Nc1ccccc1F
→ -6.9 | -7.3[16.7 µM]
COCC(=O)Nc1ccc2c(c1)C(=O)N(C)C[C@H](OC)[C@@H](C)CN(Cc1ccccc1)[C@@H](C)CO2
→ 25.9 | -13.3[16.7 µM]
C[C@H]1CN([C@@H](C)CO)C(=O)c2cc(NC(=O)c3ccncc3)ccc2O[C@@H]1CN(C)S(=O)(=O)c1ccc(F)cc1
→ -7.6 | -8.4[16.7 µM]
O=C(CC1CC1)Nc1ccc2c(c1)[C@@H]1C[C@H](CC(=O)NC3CCCCC3)O[C@H](CO)[C@@H]1O2
→ -16.6 | 3.6[16.7 µM]
CN1C(=O)c2cc(NC(=O)c3cccc(F)c3)ccc2OC[C@H]2O[C@H](CC(=O)O)CC[C@@H]21
→ 4.1 | 7.2[16.7 µM]
COCCNC(=O)C[C@H]1C[C@H]2c3cc(N(C)C)ccc3O[C@H]2[C@@H](CO)O1
→ -20.4 | -21.3[16.7 µM]
COc1cccc(-c2cnc3c(c2)C(=O)N([C@H](C)CO)C[C@H](C)[C@H](CN(C)S(=O)(=O)c2ccc(C)cc2)O3)c1
→ -0.7 | -8.6[16.7 µM]
CN1CCN(C(=O)C[C@@H]2CC[C@@H]3[C@H](COC[C@H](O)CN3Cc3cccc(F)c3)O2)CC1
→ 6.5 | -5.7[16.7 µM]
C[C@@H]1CN([C@@H](C)CO)C(=O)c2cccc(NS(=O)(=O)c3cccs3)c2O[C@H]1CN(C)S(=O)(=O)c1ccc(F)cc1
→ 7.9 | -1.5[16.7 µM]
C[C@H](CO)N1C[C@H](C)[C@@H](CN(C)C(=O)NC2CCCCC2)OCCCC[C@H](C)Oc2ccc(NC(=O)CCCN(C)C)cc2C1=O
→ 18.6 | 1.4[16.7 µM]
C[C@@H]1CCCCO[C@@H](CN(C)C(=O)Nc2ccc(F)cc2)[C@H](C)CN([C@@H](C)CO)C(=O)c2cc(NC(=O)C3CCCCC3)ccc2O1
→ -9.4 | -22.5[16.7 µM]
C[C@@H]1CN([C@H](C)CO)C(=O)c2cc(NC(=O)c3ccccc3)ccc2O[C@@H](C)CCCCO[C@@H]1CN(C)C(=O)Nc1cccc2ccccc12
→ -14.2 | -44.5[16.7 µM]
C[C@@H]1CN([C@@H](C)CO)C(=O)c2cc(NC(=O)Nc3ccc4c(c3)OCO4)ccc2O[C@@H]1CN(C)S(=O)(=O)c1cccs1
→ -11.4 | -7.1[16.7 µM]
C[C@@H]1CN([C@@H](C)CO)S(=O)(=O)c2ccc(Br)cc2O[C@H]1CN(C)CC1CCOCC1
→ -11.4 | -2.1[16.7 µM]
C[C@@H]1CCCCO[C@H](CN(C)C(=O)Nc2cccc3ccccc23)[C@H](C)CN([C@@H](C)CO)C(=O)c2cc(NC(=O)c3ccccc3)ccc2O1
→ -11.5 | -56.3[16.7 µM]
C[C@H](CO)N1C[C@H](C)[C@H](CN(C)CC2CC2)Oc2ccc(NC(=O)CCN3CCOCC3)cc2CC1=O
→ -9.5 | 10.5[16.7 µM]
O=C(N[C@@H]1CC[C@H](CC(=O)N2CCc3ccccc3C2)O[C@@H]1CO)C1CC1
→ 19.5 | -34.2[16.7 µM]
C[C@H](CO)N1C[C@H](C)[C@H](CN(C)Cc2ccc(Cl)c(Cl)c2)Oc2ccc(NC(=O)C3CCCCC3)cc2CC1=O
→ -5.3 | -7.1[16.7 µM]

Values run as follows: UUG fidelity | HIV Env fusion
C[C@H](CO)N1C[C@H](C)[C@H](CN(C)Cc2ccc3c(c2)OCO3)OCCCC[C@H](C)Oc2ccc(NS(=O)(=O)c3ccc(Cl)cc3)cc2C1=O
→ 1.3 | -43.3[16.7 µM]
C[C@H](CO)N1C[C@H](C)[C@H](CN(C)CC2CC2)Oc2ccc(NC(=O)CCCCCC(=O)Nc3ccccc3N)cc2CC1=O
→ -6.1 | 0.6[16.7 µM]
C[C@H]1CN([C@@H](C)CO)S(=O)(=O)c2ccc(C#CC3CC3)cc2O[C@@H]1CN(C)C(=O)c1ccncc1
→ 7.2 | -18.2[16.7 µM]
CNC(=O)C[C@H]1CC[C@H]2[C@@H](COc3ccc(NC(=O)c4ccc(C#N)cc4)cc3C(=O)N2C)O1
→ 3.6 | -3.6[16.7 µM]
O=C(N[C@@H]1CC[C@@H](CCn2cc(-c3cccnc3)nn2)O[C@H]1CO)c1ccccc1F
→ -9.8 | -23.9[16.7 µM]
CCCCn1c(N)c(N(CCC(C)C)C(=O)COC(=O)c2cccnc2Cl)c(=O)[nH]c1=O
→ -14.6 | -3.1
C[C@H]1CN([C@@H](C)CO)C(=O)Cc2cc(NS(=O)(=O)c3ccccc3)ccc2O[C@@H]1CN(C)C(=O)Nc1cccc2ccccc12
→ 0.2 | 2.9[16.7 µM]
C[C@H](CO)N1C[C@H](C)[C@H](CN(C)C(=O)Nc2ccc(C(F)(F)F)cc2)Oc2ccc(NC(=O)C3CCCCC3)cc2CC1=O
→ -10.2 | -19.1[16.7 µM]
O=C(C[C@H]1C[C@H]2c3cc(NC(=O)NC4CCCC4)ccc3O[C@H]2[C@@H](CO)O1)NCc1cc(F)ccc1F
→ -20.2 | 8.2[16.7 µM]
CCCC#Cc1ccc2c(c1)O[C@@H](CN(C)C(=O)Nc1ccc(OC)cc1)[C@@H](C)CN([C@@H](C)CO)S2(=O)=O
→ 3.6 | -8.6[16.7 µM]
